Bioassay records from PubChem BioAssay.
Rango release inh = inhibition of RanGTP-driven Rango-importin beta dissociation | O95149+P62826 | Biochemical FRET Rango-importin beta, RanGTP-induced dissociation | Potency, µM (doses to about 46.1 µM), inactives show at the top dose activity change, negative = inhibition | 340,000 tested, 0.071% active; active means falling FRET ratio curve, often poorly fitted, with flat reads before Ran was added; inconclusive means other falling curves, or compound fluorescence or quenching; inactive means flat or rising ratio curve;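 further: potency means the concentration at half of the fitted maximal effect; % of control where 0% means no effect; nearly all actives have a fitted effect of over 45% in size; -100% = wells without RanGTP and RCC1; the record marks most hits as doubtful in a second field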
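Recombinant Rango FRET biosensor (EYFP–snurportin 1 IBB–cerulean CFP10) at 0.1 uM premixed with 0.25 uM importin beta in PBS, 1 mM DTT, 0.02% Tween-20, 0.1% BSA. Compound added 5 min; RanGTP-RCC1 (0.6 uM Ran, 2 mM GTP, 0.2 uM RCC1) then triggers release, read at 45 min.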
miR-21 FLuc = raises the signal of a miR-21 reporter. HeLa miR-21 FLuc reporter, luciferase, 48 h. Potency, µM (top dose mostly 38.3 µM), for inactives: top-dose reporter change, positive = more light. 340,000 tested, under 10 active. AID 2288; active = well fitted rising curve with a large enough effect; inconclusive = small, poorly fitted or top-dose-only effect; inactive = no such curve, though single readings can be large or run the other way;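 further: % of control where 0% means no effect; miR-21 action dims this reporter so a rising signal means less miR-21 action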
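Using DMEM plus 10% FBS, HeLa miR-21-FLuc cells are incubated with test compounds (final up to about 40uM) for 48 hours; firefly luciferase signal is then imaged following reagent-mediated lysis.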
Rango-impB inh = prevents formation of the Rango-importin beta complex. Q14974. Rango CFP/YFP FRET sensor + importin beta, 45 min. Potency, µM (highest dose often 92.2 µM), without a hit: top-dose inhibition of complex formation. 340,000 tested, 0.031% active; active = rising FRET ratio curve, often small or poorly fitted; inconclusive = mostly compound fluorescence or quenching in the first reads; inactive = flat curves in all reads;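 further: potency means the concentration at half of the fitted maximal effect; 0% = DMSO wells and 100% = buffer wells lacking importin beta; nearly all actives have a fitted effect of over 15% in size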
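FRET biosensor (snurportin 1 IBB flanked by EYFP and cerulean), 50 nM, with compound 5 min, then 0.125 microM importin beta in PBS, 1 mM DTT, 0.02% Tween-20, 0.1% BSA. CFP/YFP ratio read after 45 min at room temperature; pre-read flags interference.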
GLA inh pH 4.5 = inhibitors of human alpha-galactosidase A at pH 4.5. purified enzyme, 4-MU-alpha-Gal fluorescence, pH 4.5. activity change, negative = inhibition, % at 105 µM. 230,000 tested, under 10 active. AID 1467; inconclusive = small, poorly fitted or top-dose-only inhibition, or a rising curve; inactive = flat fitted curve, though single readings scatter; no compound was filed as active;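 further: 0% = full activity with enzyme and -100% = basal without enzyme; dose as in the result columns while the protocol names 77 µM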
Target sequence (P06280 whole entry, looked up): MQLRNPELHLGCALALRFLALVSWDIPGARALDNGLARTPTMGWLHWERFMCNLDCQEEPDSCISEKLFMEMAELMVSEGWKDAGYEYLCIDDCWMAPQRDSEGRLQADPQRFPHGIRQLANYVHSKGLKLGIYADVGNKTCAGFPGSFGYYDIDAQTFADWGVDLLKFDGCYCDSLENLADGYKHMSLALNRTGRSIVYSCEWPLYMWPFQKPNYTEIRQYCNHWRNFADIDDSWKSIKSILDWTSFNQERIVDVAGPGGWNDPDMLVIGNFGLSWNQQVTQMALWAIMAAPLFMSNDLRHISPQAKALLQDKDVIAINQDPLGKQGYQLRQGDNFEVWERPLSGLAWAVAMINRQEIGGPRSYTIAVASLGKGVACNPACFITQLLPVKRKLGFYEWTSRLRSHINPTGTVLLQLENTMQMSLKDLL
Numbers without * were called inactive; u = inconclusive; x = not tested or not shown; & = joins results of further samples; [ ] = remark or other dose. Some of the compounds tested, so the mix of outcomes need not match the whole.

Rango release inh,miR-21 FLuc,Rango-impB inh,GLA inh pH 4.5,Molecule
4%,-2%,1.4%,7,CCOC(=O)c1cc(NC(=O)N(C(C)C)C(C)C)c(C)nc1C
-1%,-1%,0.6%,x,Cn1c(=O)c(=O)n(C)c2cc(S(=O)(=O)CCC(=O)NCc3ccccc3)ccc21
-1%,-1%,-4.0%,5[21.1 µM],COc1ccc(NCc2nnc(SCC(=O)Nc3ccccc3)n2C)cc1
19%,-2%,-1.3%,x,CCc1ccc(OCC(O)CN2CCN(CCO)CC2)cc1 (stereo unspecified)
x,-13%,x,-3,COC(=O)c1[nH]c2cc(OC)ccc2c1NC(=O)CN1CCOCC1
19%,3%,-5.3%,x,NS(=O)(=O)c1cccc(NC(=O)c2ccc3nc[nH]c3c2)c1
-11%,11%,0.2%,x,O=C(Nc1ccc(F)cc1)c1cc(S(=O)(=O)N2CCCCC2)ccc1F
0%,3%,1.4%,0,Cc1ccc(S(=O)(=O)N2CCC(C(=O)OCc3ccc([N+](=O)[O-])cc3)CC2)cc1
-18%,9%,-1.0%,-28&-3,CCC1=C2CC[C@H]3C(=O)N(CC)C(=O)[C@H]3[C@H]2[C@@]2(Cc3ccccc3)C(=O)N(Cc3ccccc3)C(=O)N2C1=O
-5%,0%,3.4%,0,Cc1noc(C)c1S(=O)(=O)N1CCC(C(=O)N(C)Cc2ccccc2)CC1
1%,x,-1.7%,x,CCCCCCSc1ccc([C@@H]2[C@H]3C(=O)N(CC)C(=O)[C@H]3[C@]3(C(=O)OC)CCCCN23)cc1OC
u,3%,-1.6%,x,COc1cccc(S(=O)(=O)NCC(=O)N2CCCC2)c1
0%,-27%,2.8%,4,CCCSc1nsc(NC(=O)CCC)n1
x,-1%,x,-7,COc1nc(N=C(N)N)nc2ccc(C)cc12
-6%,29%,3.2%,-2,CC1(C)Cc2ccccc2-c2nnc(SCC(=O)N3CCN(c4ccccc4)CC3)n21
0%,-4%,-2.6%,-4,CSc1oc(-c2ccco2)nc1S(=O)(=O)c1ccc(Br)cc1
14%,-9%,u,-29,COc1ccc(/C=C/C(=O)OCCNC(=O)c2ccncc2)cc1OC
-6%,0%,3.3%,0,C=CCc1ccccc1OCC(O)Cn1ccnc1C (stereo unspecified)
-11%,-36%,1.4%,x,Brc1ccccc1OCCCOc1cccc2cccnc12
-3%,-7%,0.2%,7,O=C(NCc1ccccn1)c1ccco1

(cont.)
Rango release inh,miR-21 FLuc,Rango-impB inh,GLA inh pH 4.5,Molecule
-25%,-3%,-1.9%,-20,COCCNC(=S)Nc1ccc(S(=O)(=O)Nc2cnc3ccccc3n2)cc1
-5%,-29%,0.8%,x,CS(=O)(=O)c1ccc2nc(NC(=O)c3cccc(Cl)c3)sc2c1
5%,-15%,3.6%,-7,CC1CCN(c2nc3ccc(C(=O)N4CCN(Cc5ccccc5)CC4)cc3s2)CC1
5%,-9%,4.6%,9,COc1ccc(C(C)=O)cc1CSc1nnc2c(Cl)cc(Cl)cn12
4%,-4%,-1.4%,-5,COc1cc(/C=N/NC(=O)C(=O)NCc2ccco2)cc(Cl)c1O
0%,1%,0.4%,-11,O=C(N/N=C/C=C/c1ccco1)c1cccc([N+](=O)[O-])c1
-18%,1%,3.4%,x,Cc1ccc(C)c(NC(=O)c2cc[n+](C)cc2)c1
-13%,-1%,4.6%,0,COc1ccccc1N(CC(=O)NCCC1=CCCCC1)S(=O)(=O)c1ccccc1
-2%,25%,-2.8%,-12[21.1 µM],Cc1cc(Cl)n2nc(C)c(-c3ccc(Cl)cc3)c2n1
4%,-6%,-3.3%,x,O=C(Nc1ccc(S(=O)(=O)Nc2nccs2)cc1)c1nn(-c2ccc(F)cc2)ccc1=O
0%,-23%,-2.9%,-11,O=C(CCC1COc2ccccc2O1)N1CCCC1 (stereo unspecified)
-1%,x,-0.1%,x,O=C(CSc1ccc(F)cc1)Nc1nnc(-c2ccco2)o1
9%,-2%,u,-7,Cc1nnc(N/N=C/c2ccc([N+](=O)[O-])cc2)n1N
8%,x,0.4%,x,COc1cc(OC)cc(C(=O)Nc2ccn(C)n2)c1
-22%,-8%,4.4%,-6,Cc1nc2c(C(=O)N3CCN(C)CC3)cnn2c(C)c1Cc1ccc(Cl)cc1
-13%,x,0.7%,x,Cc1cccc(OCCCC(=O)Nc2ccc(Cl)c(S(=O)(=O)N3CCOCC3)c2)c1
-26%,-2%,1.7%,6,CCSc1nc(-c2ccccc2)nc(C(Cl)Cl)n1
19%,4%,-5.2%,1,Cc1ccc(COn2c(-c3ccc(Cl)cc3Cl)nc3ncccc32)cc1
9%,-28%,0.7%,-2,C=CCOC(=O)c1sc(NC(=O)c2ccco2)nc1C
-15%,-13%,-1.1%,-3,OC(c1ccc2c(c1)OCO2)c1nccc2ccccc12 (stereo unspecified)

Following part:
Rango release inh,miR-21 FLuc,Rango-impB inh,GLA inh pH 4.5,Molecule
-2%,-2%,4.1%,-5,CCc1ccc(N2C(=O)C3ON(c4ccccc4)C(c4ccco4)C3C2=O)cc1 (stereo unspecified)
31%,16%,0.8%,x,O=C(/C=C\c1ccccc1)NCC(=O)N/N=C/c1ccc(O)cc1O
-15%,27%,-2.0%,x,CC1Sc2ccc(S(=O)(=O)CCC(=O)Nc3ccc(C(C)C)cc3)cc2NC1=O (stereo unspecified)
-1%,-62%,u,x,COc1ccccc1NC(=O)c1ccc2nsnc2c1
2%,x,u,x,O=C1C=C(c2ccoc2)N2CCC[C@H]2C1
-10%,9%,-0.7%,x,Cc1cccc(NCc2nc(SCC(=O)Nc3ccccc3Br)n[nH]2)c1
20%,-2%,-0.2%,x,CCN(CC)CCN1C(=O)C2C(C(=O)Nc3ccc(C(C)C)cc3)C3C=CC2(O3)C1C(=O)NC1CCCCC1 (stereo unspecified)
2%,0%,1.1%,-6,N#CC1=C(N)Oc2c(oc(CO)cc2=O)C1c1cccs1 (stereo unspecified)
-9%,10%,u,-9,O=C(c1ccc(F)cc1)N1CCN(c2ccc([N+](=O)[O-])cc2-n2cccc2)CC1
u,-1%,0.9%,x,COc1ccc(/C=C2/C(=O)N(c3ccccc3)N=C2C)cc1Br
2%,u,8.0%,-8,O=[N+]([O-])c1ccc(Sc2cccc[n+]2[O-])c2nonc12
2%,-1%,1.3%,0,Cc1cc(=O)[nH]c(SCC(=O)N2CCN(S(=O)(=O)c3ccccc3)C2)n1
26%,x,0.7%,x,O=C(O)c1ccc2cc(-c3ccccc3)[nH]c2c1
-9%,-4%,0.4%,-15,COc1ccc(Br)cc1/C=N/NC(=O)CNC(=O)/C=C/c1ccccc1
6%,16%,0.7%,0,Cc1ccc(-c2nc(-c3ccccc3)no2)c(Cl)c1
-14%,-39%,-1.6%,0,COc1ccccc1Nc1nc(N)nc(CSC(=S)N2CCC(C)CC2)n1
1%,-3%,2.2%,4,O=C(CCC(=O)OCC(=O)c1ccccc1)NC1CCCCC1
-7%,-10%,2.3%,x,O=C(CN1CCN(S(=O)(=O)/C=C/c2ccccc2)CC1)NCC(F)(F)F
10%,0%,3.7%,x,Cc1cccc(C(=O)N2CCN(S(=O)(=O)N3CCCCCC3)CC2)c1
-6%,-12%,1.5%,0,NC(=O)c1ccc(C(F)(F)F)n(Cc2ccc(Cl)cc2)c1=O

Continued:
Rango release inh,miR-21 FLuc,Rango-impB inh,GLA inh pH 4.5,Molecule
u,-78%,u,0,CN(C)c1ccc(/C=C(/C#N)C(=O)NCc2ccccc2)o1
1%,x,3.0%,x,COc1ccc(S(=O)(=O)N2CCCC(C(=O)N3CCCC3)C2)cc1OC (stereo unspecified)
9%,-2%,-0.7%,-5,COCCn1c(SCC(=O)Nc2cc(C)on2)nnc1-c1ccco1
7%,-7%,4.9%,-5,Cc1cccc2cc(CN(Cc3ccco3)C(=O)c3cccs3)c(=O)[nH]c12
10%,1%,-1.8%,9,CC(C)C1OC2c3cccc4cccc(c34)C2N1c1ccccc1 (stereo unspecified)
2%,7%,3.2%,x,COc1cccc(-c2nc(-c3ccccc3)c(-c3ccccc3)[nH]2)c1OCC(=O)O
-17%,-13%,-2.7%,25,c1csc(C2Nc3ccccc3-c3nc4ccccc4n32)c1 (stereo unspecified)
-1%,x,-0.8%,x,O=C(COC(=O)c1ccccc1F)NNC(=O)c1ccccc1
-5%,x,0.9%,x,COc1cc(OC)c(C(=O)OCC(=O)c2ccc3c(c2)NC(=O)CO3)cc1OC
-12%,-3%,-0.6%,x,O=C(NCCc1cccc(Cl)c1)c1cc2ccccc2oc1=O
9%,-2%,0.8%,2,CCOC(=O)CNC(=O)c1cn(CC)c(=O)c2cc(OC)c(OC)cc12
28%,1%,0.8%,-4,CC(=O)N1CCN(S(=O)(=O)c2c(F)cc(F)c(Cl)c2F)CC1
-13%,-6%,-0.8%,-2,COc1ccc(OCC(=O)NNC(=O)C(=O)N2CCCC2)cc1
1%,x,0.3%,x,Cc1cc(C)n2nc(SC(C)C(=O)Nc3ccccc3F)nc2n1 (stereo unspecified)
-10%,0%,u,7,Cc1ccc2c(c1)CC1(CN2C)C(=O)OC(C)(C)OC1=O
2%,2%,-0.7%,2,O=C(COc1nc2ccccc2nc1N1CCOCC1)N1CCc2ccccc21
8%,-1%,1.3%,6,Cc1ccc(S/C=C\C(=O)c2ccccc2)cc1
6%,-5%,-0.3%,2,Cc1nc2ccccc2n1CCOc1ccc([N+](=O)[O-])cc1
-13%,11%,-0.7%,-13,COc1ccc(N(CC(=O)Nc2cccc(N(C)S(C)(=O)=O)c2)S(=O)(=O)c2ccccc2)cc1Cl
5%,2%,1.2%,0,Cc1ccc2c(c1)N(CCC(=O)NC(C)C)C(=O)CO2

The list continues.
Rango release inh,miR-21 FLuc,Rango-impB inh,GLA inh pH 4.5,Molecule
20%,0%,3.1%,4,COc1ccc(-c2nc(C(N)=O)c3[nH]c(=O)n(-c4ccccc4OC)c3n2)c(OC)c1
-2%,0%,-0.3%,5,CN(C)S(=O)(=O)c1ccccc1N=C=S
-2%,-4%,-0.9%,5,O=C(CCN1C(=O)c2ccc([N+](=O)[O-])cc2C1=O)Nc1cccc(O)c1
9%,0%,-5.8%,6,COc1ccc(NC2CS(=O)(=O)CC2NCc2ccco2)cc1 (stereo unspecified)
1%,-1%,0.2%,u,Cc1cccc(N2CCN(C(=S)Nc3ccc4nc(N5CCN(C)CC5)cc(C)c4c3)CC2C)c1 (stereo unspecified)
-14%,0%,0.9%,0,Cc1ccc(N2CC(C(=O)NCc3ccccn3)CC2=O)cc1 (stereo unspecified)
-2%,-6%,-1.7%,1,COC(=O)Cn1cnc2ccccc2c1=O

Filtered by structure: the entries above with two or more sulfur atoms.
Rango release inh,miR-21 FLuc,Rango-impB inh,GLA inh pH 4.5,Molecule
0%,-27%,2.8%,4,CCCSc1nsc(NC(=O)CCC)n1
0%,-4%,-2.6%,-4,CSc1oc(-c2ccco2)nc1S(=O)(=O)c1ccc(Br)cc1
-25%,-3%,-1.9%,-20,COCCNC(=S)Nc1ccc(S(=O)(=O)Nc2cnc3ccccc3n2)cc1
-5%,-29%,0.8%,x,CS(=O)(=O)c1ccc2nc(NC(=O)c3cccc(Cl)c3)sc2c1
4%,-6%,-3.3%,x,O=C(Nc1ccc(S(=O)(=O)Nc2nccs2)cc1)c1nn(-c2ccc(F)cc2)ccc1=O
-15%,27%,-2.0%,x,CC1Sc2ccc(S(=O)(=O)CCC(=O)Nc3ccc(C(C)C)cc3)cc2NC1=O (stereo unspecified)
2%,-1%,1.3%,0,Cc1cc(=O)[nH]c(SCC(=O)N2CCN(S(=O)(=O)c3ccccc3)C2)n1
-14%,-39%,-1.6%,0,COc1ccccc1Nc1nc(N)nc(CSC(=S)N2CCC(C)CC2)n1
-13%,11%,-0.7%,-13,COc1ccc(N(CC(=O)Nc2cccc(N(C)S(C)(=O)=O)c2)S(=O)(=O)c2ccccc2)cc1Cl
-2%,0%,-0.3%,5,CN(C)S(=O)(=O)c1ccccc1N=C=S
